# Compound activity deposited in PubChem by several laboratories.
# RanGTP-Imp inh: disruptors of Ran-importin-beta complex formation – biochemical, FRET, CFP-Ran, YFP-importin-beta, homogeneous, primary screen | cell-free CFP-Ran/YFP-importin-beta FRET ratio | inhibition, % (concentration not given with the values) | 300,000 compounds, 1.1% hits;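 active = most replicates above 15%; inconclusive = exactly half above 15%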;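 also: 0% = DMSO wells and 100% = Ran loaded with GDP instead of GTP; wells of about 40 µL received 100 nL stock; the first replicate is given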
# Bfl-1 A1 inh: inhibitors of the anti-apoptotic protein A1, read as caspase activation. MEF A1-2A-BIM cells, Caspase-Glo 3/7 luminescence, 3 h; percent of clofoctol response, vehicle zero. caspase activation, % (test concentration not listed). 330,000 compounds, 0.066% hits. AID 2462;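 active = over half of replicate activation scores above 10%, or exactly half above 10 with the replicate mean above 10; inconclusive = replicate mean below 10 yet half the replicates above 10; inactive = over half of replicates below 10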;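 also: wells of about 30 µL received 50 nL stock; many hits fall short of the cut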
# LANA-H2A inh: blocks KSHV LANA binding to histone H2A/H2B; 320,000 compounds, 0.6% hits; cell-free LANA-H2A/H2B peptide, fluorescence polarization; Q9QR71; AID 2629; inhibition, % (test concentration not listed); in the data active = inhibition mostly above about 10%, no sharp cut-off; inactive = mostly below about 6.7%;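 also: stock transfer was 7.5 nL into about 10 µL; 0% = median of vehicle wells and 100% = median of positive control wells; one replicate is shown; the record names a cut of 25% in any replicate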
# Target sequence (Q9QR71 whole entry, looked up): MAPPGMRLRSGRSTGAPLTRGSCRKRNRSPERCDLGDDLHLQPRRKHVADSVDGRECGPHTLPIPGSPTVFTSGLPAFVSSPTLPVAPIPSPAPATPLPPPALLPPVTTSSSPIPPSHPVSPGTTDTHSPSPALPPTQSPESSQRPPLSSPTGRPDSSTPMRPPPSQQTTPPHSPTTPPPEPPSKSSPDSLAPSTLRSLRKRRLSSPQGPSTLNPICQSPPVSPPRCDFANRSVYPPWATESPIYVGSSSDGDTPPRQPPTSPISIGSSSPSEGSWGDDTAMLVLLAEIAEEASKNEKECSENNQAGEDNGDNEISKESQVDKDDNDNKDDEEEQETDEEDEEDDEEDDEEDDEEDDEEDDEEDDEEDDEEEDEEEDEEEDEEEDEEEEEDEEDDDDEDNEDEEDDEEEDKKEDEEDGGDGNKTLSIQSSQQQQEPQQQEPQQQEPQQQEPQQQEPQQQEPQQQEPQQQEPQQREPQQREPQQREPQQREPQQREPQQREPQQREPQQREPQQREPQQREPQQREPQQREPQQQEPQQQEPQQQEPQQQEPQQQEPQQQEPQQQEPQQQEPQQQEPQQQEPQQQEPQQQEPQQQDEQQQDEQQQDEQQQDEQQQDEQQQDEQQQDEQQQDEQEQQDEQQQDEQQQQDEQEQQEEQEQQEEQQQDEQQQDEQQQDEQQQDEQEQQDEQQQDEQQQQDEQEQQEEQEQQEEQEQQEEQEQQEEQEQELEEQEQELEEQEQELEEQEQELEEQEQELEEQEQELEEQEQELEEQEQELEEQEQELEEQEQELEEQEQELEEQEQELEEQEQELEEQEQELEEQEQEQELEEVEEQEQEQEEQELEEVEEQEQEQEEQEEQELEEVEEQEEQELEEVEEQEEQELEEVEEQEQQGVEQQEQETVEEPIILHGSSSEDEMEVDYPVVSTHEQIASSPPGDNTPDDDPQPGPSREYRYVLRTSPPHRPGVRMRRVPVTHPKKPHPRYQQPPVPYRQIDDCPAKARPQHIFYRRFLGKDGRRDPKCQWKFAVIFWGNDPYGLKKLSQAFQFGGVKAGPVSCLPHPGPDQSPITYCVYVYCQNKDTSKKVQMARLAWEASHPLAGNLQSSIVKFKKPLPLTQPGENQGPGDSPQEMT
# Beta apoptosis: blocks beta cell apoptosis | protection from apoptosis, % (test concentration not listed) | INS-1E cytokine-induced death, ATP luminescence, 48 h; percent of positive-control rescue, neutral wells zero | AID 435005 | 300,000 compounds, 0.8% hits;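 active = all replicates at 75% or more, or half of them and the mean; inconclusive = half reach 75% but not the mean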;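 also: 0% = cytokine-treated negative control wells and 100% = positive control rescue; higher means more ATP so stronger rescue from cytokine killing; wells of about 40 µL received 100 nL stock; the first replicate is given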
# B2AR ag: agonists of human beta-2 adrenergic receptor inducing internalization; P07550; AID 504454; 340,000 compounds, 0.43% hits; response, % (test concentration not listed); Am2.2-beta2AR cells, FAP receptor internalization, flow cytometry; reference of the scale not given here;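 active = response above a set limit, near 3 SD of response in nonfluorescent compounds, cut at about 42% in these data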;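 also: stock transfer was 100 nL into about 11 µL; a reference agonist was the positive control; negative values mostly stem from fluorescent compounds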
# T cruzi inh: T. cruzi replication inhibition; T. cruzi beta-gal in NIH3T3, luminescence, 90 h; inhibition, % (no concentration beside the values); 300,000 compounds, 1.4% hits;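 active = mean inhibition across valid replicates above about 55%, limit read from the data; inconclusive = mean below that limit but half or more replicates reach it; inactive = mean below it, under half of replicates reach it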;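 also: signal also drops with host cell toxicity which is not excluded here; 0% = plate median of DMSO wells and 100% = zero luminescence signal; higher percent means less beta-gal luminescence so fewer parasites; stock transfer was 50 nL into about 50 µL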
# Calb FLC: affects C. albicans growth with fluconazole | C. albicans CaCi-2 (fluconazole-resistant clinical isolate) + fluconazole, Alamar Blue growth, 48 h | growth inhibition, % (concentration not given with the values) | 300,000 compounds, 0.57% hits;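 active = most replicates above 75%; inconclusive = exactly half above 75%; inactive = most below 75%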;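 also: all wells also contain fluconazole at 8 µg/ml as a sub-toxic cotreatment; 0% = median of DMSO wells and 100% = median of geldanamycin control wells; wells of about 8 µL received 7.5 nL stock; the first replicate is given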
# UCH37 inh: blocks the human deubiquitinase UCH37. Q9Y5K5. purified proteasome/UCH37, Ub-AMC cleavage fluorescence. inhibition, % (concentration not given with the values). 330,000 compounds, 0.33% hits. AID 588478;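 active = mean of two replicates above 20%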;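 also: 0% = compound-free wells with enzyme and 100% = wells lacking proteasome; stock transfer was 100 nL into about 20 µL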
#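 system = Proteasome-associated human UCH37 deubiquitinase | amount = 0.15 nM proteasome as dispensed | medium = pH 7.4 Tris-HCl (50 mM) with ovalbumin, ATP-MgCl2, DTT | incubation = 30 min preincubation with enzyme, 25 min cleavage at room temperature | detection = AMC fluorescence 355/460 nm | read-out basis = percent inhibition | controls = no-proteasome and no-compound wells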
# Starred values were filed as active, the others as inactive; ? = inconclusive; · = not tested or not shown.
SMILES,RanGTP-Imp inh,Bfl-1 A1 inh,LANA-H2A inh,Beta apoptosis,B2AR ag,T cruzi inh,Calb FLC,UCH37 inh
N/C(=N\OC(=O)COc1ccc([N+](=O)[O-])cc1)c1cccnc1,6.5,-0.1,-0.4,-7.1,-2.5,-14.7,-15.9,·
CCc1c(C)nc2cc(-c3ccc(OC)cc3)[nH]n2c1=O,2.2,-0.2,-1.4,4.0,1.9,4.8,30.8,-12.8
COc1ccc(CC(=O)Nc2ccc(C(N)=O)cc2)cc1,0.7,0.4,2.6,0.0,10.8,6.7,2.7,1.2
Cc1ccccc1N=C1c2ccccc2C(=O)C1[N+](=O)[O-] (stereo unspecified),?,-0.4,4.2,3.5,1.6,-11.9,-19.1,10.6
O=C(NCC(c1ccco1)N1CCCCC1)c1ccc(OCc2ccccc2)cc1 (stereo unspecified),3.6,0.0,-1.3,12.5,0.4,23.9,16.9,1.6
CCn1ncc(N2CCOCC2)c(Cl)c1=O,-1.4,-0.2,-0.6,0.2,-8.6,-10.0,4.7,1.6
COc1cc(N=Cc2c(CO)cnc(C)c2O)cc(OC)c1OC,3.7,0.0,-2.7,·,3.4,-5.7,-5.5,-0.6
COc1ccc(/C=N/NC(=O)/C(=C/c2ccccc2)CCO)cc1,1.0,0.5,-2.2,-0.3,2.1,-10.0,-17.0,·
Cc1cc(N)nc2nc(C(F)(F)F)nn12,1.0,-0.3,-1.2,0.8,-1.3,-14.0,-2.1,3.2
CN1CCN(CCCCC(=O)c2ccccc2)CC1,0.3,0.4,-5.5,-7.4,-9.3,4.7,-3.0,1.1
O=C(Nc1nnc(CCc2ccccc2)s1)c1ccco1,-0.8,-2.9,-0.2,4.5,-18.0,-0.5,?,-1.9
CC(C)(C)c1ccc(C(=O)NC(=O)COC(=O)c2ccc(Br)o2)cc1,·,0.2,-3.4,1.5,-0.6,·,·,0.1
CCCCN(C1CCS(=O)(=O)C1)S(=O)(=O)c1ccc(OC)c(OC)c1 (stereo unspecified),4.1,0.9,-3.4,-4.5,4.5,-7.5,5.4,1.3
CCOc1ccc(N2C(=O)CC(N3CCN(c4ccc(F)cc4)CC3)C2=O)cc1 (stereo unspecified),?,-0.2,-2.5,-2.4,3.0,-1.6,1.8,0.3
COc1ccc(N(CC(O)CN2C(=O)NC(C)(C)C2=O)S(=O)(=O)c2ccccc2)cc1 (stereo unspecified),-5.7,0.2,-0.1,-2.1,9.8,-12.2,-6.9,6.1
CCCCc1ccc(NC(=O)COc2ccc(C(=O)Nc3ccccc3OCC)cc2)cc1,0.2,0.0,4.3,5.8,-1.9,4.2,-22.8,0.2
Cc1ccccc1OC1C(=O)N(CC2CCCO2)C1c1ccc2c(c1)OCO2 (stereo unspecified),1.7,0.2,-1.0,4.9,-5.3,18.4,-3.8,1.1
Oc1ccc(/C=C/c2nc(-c3ccccc3O)n(-c3ccccc3)n2)cc1,2.9,0.1,-3.1,1.5,13.8,23.1,-11.2,-46.6
CCC1CCCCN1Cc1ccc(OC)c(C)c1C (stereo unspecified),-0.6,0.7,-7.4,-2.3,-2.3,8.7,?,3.2
COC(=O)c1ccccc1NC(=O)NC1CCN(Cc2ccccc2)CC1,-1.2,0.0,0.7,-3.2,-7.7,-14.3,14.6,-9.5
Cc1[nH][nH]c(=O)c1C=NCc1cccnc1,-0.5,0.0,-3.8,-0.5,-3.8,-19.9,-15.3,5.3
CC(C)(C)C(=O)/C(=C\c1ccc([N+](=O)[O-])cc1)n1cncn1,-3.2,?,7.1,112.0*,·,?,107.5*,·
COCC(=O)N(Cc1cc2cccc(C)c2[nH]c1=O)c1ccccc1,-1.7,2.1,1.2,-4.1,-0.2,-0.5,1.7,-5.2
COc1ccc(S(=O)(=O)N2CCOC2CNC(=O)C(=O)NCCCN2CCOCC2)cc1OC (stereo unspecified),-2.0,-0.5,7.3,1.6,2.4,-25.3,-0.1,0.1
Cc1c(NC(=O)CSc2nc3ccc(Cl)cc3[nH]2)c(=O)n(-c2ccccc2)n1C,·,0.3,3.7,-9.4,-15.3,·,·,-1.1
Cc1ccc(C(=O)Oc2csc(=S)n2C(=O)c2ccc(C)cc2)cc1,?,-0.9,-0.3,-0.3,1.8,-0.2,6.7,1.3
OCCC#Cc1c(-c2ccsc2)sc2ccccc12,-4.3,-1.0,-5.4,·,4.2,-11.0,-2.1,1.3
COc1ccc(-c2nc3ccc([N+](=O)[O-])cc3o2)cc1,5.4,-8.0,1.4,0.9,-7.1,0.0,0.5,0.6
CCOc1ccc(CCNC(=O)COC(=O)c2cccs2)cc1OCC,-3.0,0.2,2.3,3.9,14.8,8.6,-3.4,2.5
CCOC(=O)c1c(OCCO)nn(-c2ccc(Cl)cc2)c1N,1.4,0.3,7.8,-1.7,-1.0,3.1,-10.6,1.1
O=C(Cc1ccc(S(=O)(=O)N2CCOCC2)s1)Oc1ccc(F)cc1,1.1,0.7,-8.8,0.0,2.1,-7.5,4.4,3.3
CC(C)c1ccc(NC(=O)C(c2ccccc2)N2CCC3(CC2)OCCO3)cc1 (stereo unspecified),5.9,-0.8,-1.9,7.7,5.6,-4.6,-13.4,3.3
O=[N+]([O-])c1ccc(S(=O)(=O)NCC(c2cccnc2)N2CCc3ccccc3C2)cc1 (stereo unspecified),0.4,-0.1,0.1,·,-7.0,35.0,6.5,4.6
Cc1ccc(NC(=O)N/C=C/c2ccccc2)cc1,-1.5,-0.4,2.4,-10.1,-3.6,3.5,0.6,0.8
COc1ccc(CNC(=O)CC(C)S(=O)(=O)c2ccc3c(c2)NC(=O)CO3)cc1 (stereo unspecified),0.9,0.0,3.0,-1.4,0.6,-9.4,-12.6,1.3
CCOC(=O)C1CCN(C(=O)c2cc(S(=O)(=O)N3CCCCCC3)ccc2OC)CC1,6.0,-0.9,1.7,1.2,12.7,3.5,1.9,1.3
CCOC(=O)N1CCN(S(=O)(=O)N2CCCC(C(=O)NCc3ccc(OC)cc3OC)C2)CC1 (stereo unspecified),-1.0,-0.1,3.0,-0.1,-9.9,2.2,27.2,2.1
COc1ccccc1C(=O)NCC(=O)OCc1ccc(Br)cc1,-3.5,-0.2,2.7,-5.6,-3.7,-8.6,-0.8,-2.0
COc1ccc(S(=O)(=O)NCCc2ccco2)cc1OC,0.7,-0.1,-4.9,-0.7,0.5,-20.9,-2.3,2.6
COc1ccc(OCC(=O)N/N=C/C=C/c2ccccc2)cc1,-3.2,-0.9,3.3,0.2,1.1,-13.8,-2.4,·
CN(C)c1ccc(CNC(=O)c2cc(S(=O)(=O)N3CCOCC3)cn2C)cc1,1.9,0.7,2.3,-3.9,9.5,-1.4,-4.9,2.8
Cc1ccc(N(Cc2ccccc2)C(=O)c2cc(S(=O)(=O)N3CCOCC3)ccc2F)cc1,·,-0.9,-5.3,-5.5,17.9,·,·,3.2
COc1ccc(NC(=O)Nc2ccncc2)c(OC)c1,-0.8,-0.4,1.5,0.6,-3.6,7.4,-6.1,3.8
COc1ccc2sc(-c3ccccc3OC)c(C#CCCO)c2c1,·,1.1,-1.3,-2.9,4.7,·,·,2.6
Cc1cccc(N(Cc2nnc3n2CCCCC3)C(=O)Nc2ccccc2)c1,2.5,0.2,0.9,-4.6,5.2,-15.1,1.6,-0.1
O=C1C=C(c2ccc(OC(F)(F)F)cc2)C[C@@H](c2ccc(F)cc2)C1,·,-0.5,0.4,-5.8,1.4,·,·,1.3
O=C(NCC(c1cccs1)N1CCOCC1)c1ccco1 (stereo unspecified),3.5,0.8,-2.4,-6.5,-5.8,-6.2,-1.9,-0.3
N#CCCOC1(C#CCN2CCCC2)CCCCC1,1.8,-0.3,1.7,·,6.9,-10.8,-12.4,6.2
O=C(NCCc1ccc(F)cc1)c1ccc2c(=O)n3c(nc2c1)CCC3,-0.4,-0.4,2.3,4.3,16.3,-2.4,-1.3,-1.4
Cc1ccc2c(COC(=O)c3ccc(C)c(C)c3)cc(=O)oc2c1,1.4,1.1,3.4,0.1,6.0,8.4,-3.8,-6.9
COc1ccc(NC(=O)c2ccccc2NC(=O)CSc2ccc(Cl)cc2)cc1,1.3,0.3,2.5,4.4,-5.0,-15.9,-4.7,6.7
COc1ccc(NC(=O)c2ccccc2NC(=O)COc2ccccc2)cc1,-0.2,-0.2,3.4,-7.6,2.1,-9.6,-12.4,-3.1
CN(C)c1ccc(/C=C/c2c([N+](=O)[O-])c(=O)n(C)c(=O)n2C)cc1,-2.9,·,·,·,1.6,25.8,-10.1,-21.2
CCCCC(=O)Nc1ncc(S(=O)(=O)c2ccc([N+](=O)[O-])cc2)s1,12.0,0.2,-1.5,·,2.3,42.2,-1.7,0.8
O=C(Nc1ccccc1Cl)C1CCCN(c2ncnc3c2nc2n3CCCCC2)C1 (stereo unspecified),-1.4,0.1,2.4,-0.8,0.9,5.2,9.3,-0.1
COc1ccc(N2C(=O)CC(Nc3ccc(C(=O)O)cc3)C2=O)cc1OC (stereo unspecified),0.9,-0.1,0.1,-3.4,7.5,-9.3,-8.1,1.3
CC1(C)O[C@@H](CC(=O)O)[C@]23CO[C@H](C(=O)[C@]4(C)C2CC[C@@]2(C)[C@H](c5ccoc5)OC(=O)C5O[C@]524)[C@@H]13 (stereo partly specified),·,-0.6,0.8,-3.4,-2.3,·,·,0.9
COC(=O)[C@@]1(Cc2ccc(OC)cc2)[C@H]2c3cc(C(=O)N(C)C)n(Cc4ccc(OC(F)(F)F)cc4)c3C[C@H]2CN1C(=O)c1ccccc1,5.9,-1.0,1.2,17.9,·,36.0,10.2,-2.6
Oc1ccc(-c2nc3ncccn3c2Nc2ccc3c(c2)OCCO3)cc1,1.4,0.6,-3.4,-2.9,-7.9,40.0,1.6,1.7
Cn1cccc1C(=O)NS(=O)(=O)c1ccccc1Cl,-6.0,-0.3,1.2,0.8,3.8,1.6,43.4,4.0

# The list continues.
SMILES,RanGTP-Imp inh,Bfl-1 A1 inh,LANA-H2A inh,Beta apoptosis,B2AR ag,T cruzi inh,Calb FLC,UCH37 inh
Cc1cc(SCC(=O)NCCCN2CCCC2=O)nc2ccccc12,·,1.0,-1.8,-8.2,4.0,·,·,2.2
CN(c1ccc(C(=O)NCc2ccncc2)cc1)S(C)(=O)=O,0.0,-0.4,-2.0,-6.4,-3.0,-16.3,2.7,1.4
CC(=O)c1c(C(C)=O)c(C)n(-c2ccc3ncccc3c2)c1C,3.0,0.2,-0.1,-12.4,-6.2,-14.6,2.0,4.8
COCC(C)n1c(C)cc(C(=O)CSc2nnc(Nc3ccccc3F)s2)c1C (stereo unspecified),0.7,-1.0,1.0,-1.6,2.7,2.2,-2.3,-0.5
Nc1nnc(SCC(=O)c2cccc([N+](=O)[O-])c2)s1,-1.5,0.2,2.7,-3.9,-1.0,-15.9,-0.2,·
COc1cccc(-c2ccc3nnc(SCC(=O)N4CCOCC4)n3n2)c1,-0.2,-0.4,-2.7,·,0.1,-0.4,-5.0,-11.0
